Screens from PubChem BioAssay.
UCH37 inh: inhibitors of human UCH37 deubiquitinase, primary screen, biochemical, Ub-AMC cleavage, fluorescence; Ubiquitin carboxyl-terminal hydrolase isozyme L5 (Homo sapiens), Q9Y5K5; inhibition, % (concentration not given with the values); AID 588478, 2011; actives 0.33% (n = 330,000); purified proteasome/UCH37;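 active = mean of two replicates above 20%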;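 note: 0% = compound-free wells with enzyme and 100% = wells lacking proteasome; stock transfer was 100 nL into about 20 µL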
Target sequence (Q9Y5K5 whole entry, looked up): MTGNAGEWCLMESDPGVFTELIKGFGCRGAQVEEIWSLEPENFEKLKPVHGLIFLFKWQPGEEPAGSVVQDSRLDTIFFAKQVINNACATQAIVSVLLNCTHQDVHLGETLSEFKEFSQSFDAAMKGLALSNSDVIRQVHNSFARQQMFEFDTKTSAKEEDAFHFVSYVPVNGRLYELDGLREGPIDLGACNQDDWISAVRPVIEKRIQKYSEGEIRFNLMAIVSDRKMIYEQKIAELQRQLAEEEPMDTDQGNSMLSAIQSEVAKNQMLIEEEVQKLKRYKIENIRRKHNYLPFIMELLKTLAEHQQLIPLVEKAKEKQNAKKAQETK
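assay system = human UCH37 enzyme supplied as purified proteasome complex | amount = proteasome at 0.15 nM in the dispensed enzyme solution | schedule = 30 min compound-proteasome preincubation then 25 min substrate reaction, room temperature | measured by = fluorescence, ex 355 nm, em 460 nm | benchmarks = no-proteasome wells (full inhibition) and compound-free wells (no inhibition)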
FGF22 binding: binders of human FGF22 protein, primary screen, FGF22 synaptogenesis inhibitor project, biophysical, thermal shift, single point; Fibroblast growth factor 22 (Homo sapiens), Q9HCT0; recombinant FGF22 thermal shift, SYPRO orange fluorescence; percent of sucrose octasulfate shift, DMSO zero; calls only at 9.99 µM; actives 1.5% (n = 340,000);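 active = melting point raised past a set limit in the mean and every replicate; inconclusive = no clear call; three in four hits are not shown here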
Target sequence (Q9HCT0 whole entry, looked up): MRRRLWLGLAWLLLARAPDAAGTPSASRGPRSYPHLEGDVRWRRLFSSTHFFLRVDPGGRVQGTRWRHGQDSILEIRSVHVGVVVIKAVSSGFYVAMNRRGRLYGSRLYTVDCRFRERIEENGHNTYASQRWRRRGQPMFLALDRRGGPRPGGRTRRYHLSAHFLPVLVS
Bfl-1 A1 inh: caspase 3/7 activation in MEF A1-2A-BIM cells, primary screen, A1 inhibitor project, cell-based, luminescence, HTS | actives 0.066% (n = 330,000) | caspase activation, % (no concentration beside the values) | Caspase-Glo 3/7 luminescence, 3 h; percent of clofoctol response, vehicle zero;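 active = over half of replicate activation scores above 10%, or exactly half above 10 with the replicate mean above 10; inconclusive = replicate mean below 10 yet half the replicates above 10; inactive = over half of replicates below 10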;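 note: wells of about 30 µL received 50 nL stock; many hits fall short of the cut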
T cruzi repl: inhibitors of intracellular T. cruzi growth, primary screen, luminescence, NIH3T3 host cells. T. cruzi beta-gal in NIH3T3, 90 h. inhibition, % (no concentration beside the values). actives 1.4% (n = 300,000);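 active = mean inhibition across valid replicates above about 55%, limit read from the data; inconclusive = mean below that limit but half or more replicates reach it; inactive = mean below it, under half of replicates reach it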;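 note: signal also drops with host cell toxicity which is not excluded here; 0% = plate median of DMSO wells and 100% = zero luminescence signal; higher percent means less beta-gal luminescence so fewer parasites; stock transfer was 50 nL into about 50 µL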
Ecoli rRNA inh: reduced GFP signal of wild-type E. coli, primary screen, bacterial rRNA inhibitor project, GFP/RFP fluorescence, OD600, single point; E. coli WT GFP vs humanized-ribosome RFP mutants, 24 h; stronger effect = lower value; DMSO median 0, no signal -100; GFP signal change (wild-type ribosome), % (test concentration not listed); actives 1.6% (n = 350,000); AID 720706, 2013;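 active = significant combined selectivity score with lowered wild-type GFP, culture density cut under 30%, mutant RFP and density less affected; inactive = any of these conditions unmet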; note: one replicate is shown; some compounds called inactive have numbers as strong as hits
MLL AF4-AF9 inh: inhibitors of AF4 peptide binding to AF9, primary screen, biochemical, AlphaScreen, biotin-AF4 peptide, FLAG-AF9, single point | AID 651704, 2012 | actives 0.47% (n = 350,000) | inhibition, % at 10 µM | Protein AF-9 (Homo sapiens), P42568;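 active = every replicate reaching a set inhibition limit, whatever the replicate mean, cut at about 25% in these data; inconclusive = mean inhibition reaches that limit but some replicates miss it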;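 note: 0% = plate neutral control median and 100% = total signal loss; the record names both 10 and 1 µM as test concentration; the first replicate is given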
Target sequence (P42568 whole entry, looked up): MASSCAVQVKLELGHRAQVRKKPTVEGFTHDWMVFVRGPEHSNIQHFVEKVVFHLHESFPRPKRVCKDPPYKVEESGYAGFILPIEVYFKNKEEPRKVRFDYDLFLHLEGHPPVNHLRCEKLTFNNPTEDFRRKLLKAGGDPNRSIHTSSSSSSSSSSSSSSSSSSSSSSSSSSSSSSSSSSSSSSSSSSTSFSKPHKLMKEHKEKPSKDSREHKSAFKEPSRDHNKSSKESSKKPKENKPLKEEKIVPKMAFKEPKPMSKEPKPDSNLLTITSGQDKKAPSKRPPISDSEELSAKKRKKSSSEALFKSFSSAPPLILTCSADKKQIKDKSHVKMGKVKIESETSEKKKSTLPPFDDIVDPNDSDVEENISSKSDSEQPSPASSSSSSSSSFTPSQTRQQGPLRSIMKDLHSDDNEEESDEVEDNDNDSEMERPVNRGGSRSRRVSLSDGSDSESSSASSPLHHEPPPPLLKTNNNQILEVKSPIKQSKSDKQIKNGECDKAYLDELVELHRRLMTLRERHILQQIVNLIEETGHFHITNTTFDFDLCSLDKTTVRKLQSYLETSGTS
Beta cell apopt: inhibitors of cytokine-induced beta cell apoptosis, primary screen, luminescence | AID 435005, 2010 | actives 0.8% (n = 300,000) | INS-1E cytokine-induced death, ATP luminescence, 48 h; percent of positive-control rescue, neutral wells zero | protection from apoptosis, % (concentration not given with the values);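 active = all replicates at 75% or more, or half of them and the mean; inconclusive = half reach 75% but not the mean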;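 note: 0% = cytokine-treated negative control wells and 100% = positive control rescue; higher means more ATP so stronger rescue from cytokine killing; wells of about 40 µL received 100 nL stock; the first replicate is given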
E coli growth: E. coli growth inhibition, primary screen, OD600; Escherichia coli growth, 23 h; stronger effect = lower value; OD600 absorbance (concentration not given with the values); actives 0.21% (n = 330,000); AID 1053175, 2014;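 active = OD600 absorbance below the run mean of sample wells minus 3.6 SD, in any replicate, cut at about 0.56 in these data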;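 note: stock transfer was 300 nL into about 60 µL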
Ecoli rRNA inh OD600: second read-out of Ecoli rRNA inh, no call of its own (marks repeat the call); OD600 change, %; measured here: OD600 growth;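 optical density of the mix in the first replicate; 0 = DMSO median and -100 = no signal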
Ecoli rRNA inh RFP: further read-out of Ecoli rRNA inh, marked with its call; RFP signal change, %; measured here: RFP humanized mutant strains;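 first replicate; 0 = DMSO median and -100 = no signal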
Starred values were filed as active, the others as inactive; i = inactive; ? = inconclusive; / = no result given. An excerpt; count on the stated rates, not on these rows.

item	SMILES	Ecoli rRNA inh	E coli growth	Beta cell apopt	T cruzi repl	Bfl-1 A1 inh	Ecoli rRNA inh RFP	UCH37 inh	FGF22 binding	MLL AF4-AF9 inh	Ecoli rRNA inh OD600
1	COc1ccc(NC(=O)Cn2c(=O)c(C)nc3ccccc32)cc1Cl	3	0.71	-7	-17	0.2	-4.9	0.1	i	0.4	8
2	Cc1ccc2c(c1)C(=O)C(=O)N2CCCOc1ccccc1	-21	0.69	8	10	0.4	5.4	3.6	i	/	-22
3	CCSc1nnc(NC(=O)C2CCN(S(=O)(=O)c3cc(C(F)(F)F)ccc3Cl)CC2)s1	9	0.7	9	8	0.9	1.3	-0.8	i	0.4	9
4	Cc1ccc(/C=C/C(=O)NCc2cccs2)cc1	/	0.62	-3	-15	0.8	/	3.9	/	/	/
5	Cc1nc(SCCc2nc3ccccc3[nH]2)c2oc3ccccc3c2n1	-6	0.65	-6	/	0.5	-2.6	3.6	i	-2.0	1
6	CN(C[C@H](Cc1ccccc1)N(CCN(CCc1ccccc1)N=O)N=O)N=O	-20	/	3	5	0.3	-7.9	-1.3	i	7.1	-17
7	COc1cc(/C=C/C(=O)O)cc(S(=O)(=O)NCc2ccc3c(c2)OCO3)c1OC	10	0.69	-5	-3	-0.5	3.1	4.6	i	-1.1	15
8	Cc1ccc(S(=O)(=O)N(C)C)cc1NC(=O)c1ccccc1Br	2	0.7	-5	0	1.5	-1.4	5.0	i	-0.8	11
9	Cc1nn(CCc2nn[nH]n2)c2nc(-c3ccc(Br)cc3)cc(C(F)(F)F)c12	-45	0.66	10	12	0.3	-7.6	-40	i	1.6	-67
10	Cc1ccc(C)c(Sc2ccc(NC(=O)CCN3C(=O)NC4(CCCC4)C3=O)cc2)c1	-49	0.7	11	/	-1.4	-8.7	0.1	i	2.6	-77
11	Cc1ccc(-n2nc3c(=O)n(C(C)C(=O)NCCC4=CCCCC4)nc(C)c3c2C)cc1 (centres undefined)	7	0.71	16	4	-0.3	0.6	-0.6	i	2.2	-3
12	Cn1nc(-c2ccc(Cl)cc2)cc1NC(=O)CC(C)(C)CC(=O)O	-1	0.68	-7	-14	-0.8	-1.6	-3.3	i	1.7	8
13	CCCc1cc(=O)[nH]c2nnc(SCC(=O)Nc3ccc4c(c3)OCCO4)n12	5	0.65	/	-5	1.0	-2.4	5.7	i	-4.7	12
14	Cn1c(=O)c2c(nc(CCc3ccccc3)n2C)n(C)c1=O	0	0.72	/	/	/	3.1	1.1	i	-2.6	6
15	Cc1ccc(CNC(=O)CSc2nc3ccccc3c(=O)n2CCCO)cc1	/	0.7	0	6	?	/	3.8	/	/	/
16	COc1ccc(CCNC(=O)Cc2cc(=O)[nH]c(=O)[nH]2)cc1OC	10	0.78	-3	-18	0.1	-2.7	0.3	i	-8.3	8
17	CC1CCC2(CC1)NC(=O)N(CC(=O)N(Cc1ccccc1)C(C)(C)C)C2=O (centres undefined)	4	0.72	-13	/	-0.1	-1.5	0.7	i	0.7	8
18	CCCN1CCN(C2CCCCC2NS(=O)(=O)c2ccc(Cl)cc2)CC1 (centres undefined)	/	0.67	-6	14	1.7	/	1.1	/	/	/
19	CC(=O)c1ccc(-c2ccc(C(=O)N3CCCc4ccccc43)o2)cc1	-48	0.65	-1	10	-0.2	-31	-6.0	i	4.7	-72
20	C/C(=N\NC(=O)c1nnn(-c2nonc2N)c1C)c1ccc(OCc2ccccc2)cc1	1	/	-1	-14	-1.2	-3.8	/	i	-2.8	6
21	COCCN(C(=O)COC(=O)c1cccnc1Cl)c1c(N)n(Cc2ccccc2)c(=O)[nH]c1=O	0	0.65	-5	-12	0.4	-1.9	0.7	/	-0.3	2
22	O=C(Nc1ccc(Cl)cc1)N1CCOC12CCC1(CC2)OCCO1	-6	0.7	-3	-2	0.8	-2.9	2.0	i	-0.6	-6
23	Nc1nc(N)c(N=Nc2ccccc2)c(=O)[nH]1	/	0.57	/	/	/	/	12	i	-1.3	/
24	COc1cccc(C(=O)Nc2cccc(NC(C)=O)c2)c1	/	0.71	0	-6	-2.6	/	3.9	/	/	/
25	O=C(NCC1CCCO1)[C@@H]1CSC2c3ccccc3C(=O)N21 (some centres undefined)	/	0.75	-4	-9	0.2	/	-0.5	/	/	/
26	CC(C)n1cnc2cc(NCc3ccccc3O)ccc21	-7	0.67	0	-3	0.0	1.1	2.8	i	5.1	-5
27	Cc1ccc(NC(=O)COC(=O)c2ccc(=O)n(Cc3ccccc3)n2)cc1F	15	0.66	1	-11	0.2	0.2	-1.2	/	-1.0	5
28	OC(CN1CCOCC1)c1ccc(F)cc1 (centres undefined)	9	0.7	3	-16	0.8	-0.4	4.4	i	-1.4	13
29	CCNC(=O)NC(=O)C(C)OC(=O)c1cccnc1SC (centres undefined)	/	0.78	3	-7	1.2	/	-2.9	/	/	/
30	Cc1ccccc1NCC(=O)N=Nc1c(O)[nH]c2ccc([N+](=O)[O-])cc12	-2	0.71	8	13	-0.6	-2.0	7.9	i	/	16
31	O=S(=O)(c1ccccc1)N1CCN(c2nc(-c3cccnc3)nc3ccccc23)CC1	2	0.64	/	/	/	-0.9	-0.6	i	0.9	9
32	CCCCc1cc(=O)oc2cc(OC(C)C(=O)NCC3CCC(C(=O)O)CC3)c(Cl)cc12 (centres undefined)	-6	0.67	1	-3	0.1	11	-9.7	i	0.0	-5
33	CCc1ccccc1NC(=S)N(Cc1ccc(OC)cc1)CC1CCC(C(=O)O)CC1 (centres undefined)	21	0.66	2	-5	-0.8	-1.7	0.3	i	-1.2	7
34	CCCOC(=O)Nc1c(C)cccc1C(C)C	1	0.67	-4	10	0.6	-2.5	1.5	i	-1.6	2
35	Cc1[nH]n(-c2nc(-c3ccccc3F)cc(=O)[nH]2)c(=O)c1CCO	9	0.67	-2	4	0.2	-0.6	6.4	i	-1.9	13
36	O=C(C1CCCN(S(=O)(=O)c2cccc3nsnc23)C1)N1CCc2ccccc2C1 (centres undefined)	/	0.73	1	7	0.7	/	1.6	/	/	/
37	COc1cc(SC)ccc1C(=O)NCc1ccccc1	/	0.73	-3	-9	1.0	/	4.1	/	/	/
38	COc1ccc(CNC(=O)c2cc(-n3cnnc3)ccc2Cl)cc1	/	0.78	-2	-8	-0.2	/	-0.3	/	/	/
39	CCOC(=O)c1oc2ccc(CNC3CCCCC3)c(Cl)c2c1C	/	0.66	/	74*	-0.1	/	4.6	/	/	/
40	Cc1ccc(S(=O)(=O)N(C)C)cc1NC(=O)COC(=O)/C=C/c1ccc2c(c1)OCO2	10	0.69	-6	1	1.8	3.3	-21	/	0.4	8
41	CC(C)(C)SCCNC(=O)c1ccc(NS(C)(=O)=O)cc1	/	0.6	-5	1	0.2	/	0.8	/	/	/
42	COc1ccc(-c2cc(-c3n[nH]c(=S)n3-c3cccc4ccccc34)[nH]n2)cc1	-56	0.67	-5	-1	0.8	-16	1.7	i	-8.3	-72
43	Cc1ccccc1C(=O)Oc1ccc2ccc(O)cc2c1	-53	0.64	5	-12	-2.8	-19	7.5	i	2.5	-78
44	COC(=O)c1ccccc1NC(=O)CS(=O)(=O)Cc1nc(-c2ccc(C)cc2)oc1C	-6	0.79	-4	-1	0.3	-2.3	0.9	i	-1.9	-17
45	Cc1ccc(NC(=O)C2CC(=O)N(CCc3ccccc3)C2)cc1Cl (centres undefined)	-12	0.66	-5	/	-0.2	-1.6	2.6	i	-3.4	-17
46	Cc1ccc(/C=C/C2=NN(Cc3ccccc3)C(=O)CC2)cc1	/	0.75	0	6	-0.1	/	0.1	/	/	/
47	Cc1ccc(NC(=S)NC2CCSc3ccccc32)cc1C (centres undefined)	/	0.7	6	-1	0.5	/	0.5	i	-0.9	/
48	CN1/C(=C\C=N\NC(=O)c2cccnc2)C(C)(C)c2ccccc21	9	/	37	32	-1.0	59	/	i	2.5	10
49	Cc1ccc(NC(=O)c2ccc3c(c2)C(=O)N(c2cc(C)ccc2C)C3=O)nc1	0	0.75	10	-10	0.1	-1.9	1.6	i	0.6	0
50	CSc1nnc(-c2nnc(SC)n2-c2ccccc2)n1-c1ccccc1	/	0.68	-2	1	-0.4	/	-1.0	/	/	/
51	Cc1ccc(C)c(S(=O)(=O)NCCCn2ccnc2)c1	/	0.65	-8	12	0.6	/	0.1	/	/	/
52	CNS(=O)(=O)c1cccc(C(=O)OCC(=O)Nc2ccc3ccccc3c2)c1	11	0.71	-2	/	0.3	1.3	1.8	i	-4.0	8
53	CC(=O)c1cccc(NC(=O)Nc2cnn(Cc3ccc(Cl)cc3Cl)c2)c1	/	0.73	-1	22	0.5	/	4.3	/	/	/
54	CN1CCN(C(=O)c2ccc(Oc3ccc([N+](=O)[O-])cc3)cc2)CC1	-4	0.72	-4	-14	-0.1	-3.0	2.5	i	-0.4	0
55	Cc1cc(C)c(NC(=O)CSc2nc3ccccc3c(=O)n2CCCN2CCOCC2)c(C)c1	20	0.66	-9	/	-0.4	4.9	0.0	i	3.1	14
56	Cc1ccc(O)c(NC(=O)CN(C)S(=O)(=O)c2ccc(Cl)cc2)c1	0	0.69	0	-12	0.3	-7.8	-0.5	i	-1.5	-3
57	Cc1ccccc1NC(=O)Cc1nnc(SCC(=O)NC2CCCCC2)n1C	18	0.69	2	-3	-0.2	8.2	4.6	i	-0.4	21

3 compounds drawn at random from those above, as already listed:
item	SMILES	Ecoli rRNA inh	E coli growth	Beta cell apopt	T cruzi repl	Bfl-1 A1 inh	Ecoli rRNA inh RFP	UCH37 inh	FGF22 binding	MLL AF4-AF9 inh	Ecoli rRNA inh OD600
54	CN1CCN(C(=O)c2ccc(Oc3ccc([N+](=O)[O-])cc3)cc2)CC1	-4	0.72	-4	-14	-0.1	-3.0	2.5	i	-0.4	0
49	Cc1ccc(NC(=O)c2ccc3c(c2)C(=O)N(c2cc(C)ccc2C)C3=O)nc1	0	0.75	10	-10	0.1	-1.9	1.6	i	0.6	0
48	CN1/C(=C\C=N\NC(=O)c2cccnc2)C(C)(C)c2ccccc21	9	/	37	32	-1.0	59	/	i	2.5	10
